Cruzain noTriton: cruzain (T. cruzi) inhibition without detergent; P25779; purified cruzain, Z-FR-AMC fluorescence, no detergent; Potency, µM, for inactives: max response, negative = inhibition, most hits filed as inhibitors; 200,000 compounds, 2.3% hits; active = well fitted curve in the direction sought with a large enough effect; inconclusive = small, poorly fitted or top-dose-only effect, or another doubt; inactive = no such curve, though single readings can be large; an effect the other way counts as inactive or inconclusive;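 note: plate controls were enzyme without inhibitor for no effect and buffer without enzyme for full effect; nearly all actives have a fitted effect of over 40% in size; top concentration of the series not given in the record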
Target sequence (P25779 123-467 limits assumed): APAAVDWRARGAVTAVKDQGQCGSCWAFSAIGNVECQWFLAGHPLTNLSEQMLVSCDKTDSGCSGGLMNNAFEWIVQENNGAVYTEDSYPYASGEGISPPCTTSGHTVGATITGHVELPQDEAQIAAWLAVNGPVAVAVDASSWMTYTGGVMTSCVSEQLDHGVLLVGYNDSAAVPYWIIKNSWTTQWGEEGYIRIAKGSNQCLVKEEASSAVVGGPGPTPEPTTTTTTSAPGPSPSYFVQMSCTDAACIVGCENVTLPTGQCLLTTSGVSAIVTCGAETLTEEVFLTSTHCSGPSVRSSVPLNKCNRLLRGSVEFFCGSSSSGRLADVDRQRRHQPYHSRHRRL
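Purified cruzain at 1.5 nM, pre-incubated 15 min with compound at room temperature in 100 mM sodium acetate pH 5.5, 5 mM DTT, 0.00005% Triton X-100. Reaction started with 2 uM Z-FR-AMC; AMC fluorescence increase over 60 s gives rate.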
MARV entry inh: blocks Marburg virus binding to or entry into cells; Marburg virus pseudotyped entry inhibition, cell reporter; control for the full effect not named in the record; about a third of the inactives were read at about 46 µM; Potency, µM (highest dose often 37.8 µM), for inactives: at the top dose activity change, negative = inhibition, hits mostly inhibitors; 300,000 compounds, 1.8% hits; active = well fitted inhibition curve with a large enough effect; inconclusive = small, poorly fitted or top-dose-only effect, or effect the other way; inactive = flat fitted curve, though single readings scatter; tested in HEK293 cells; about a fifth of its hits are not listed in these tables; note: % is set by controls: 0 for no effect and ±100 for the full control effect; luciferase read-out
Cruzain inh Det: blocks cruzain activity in presence of Triton detergent | P25779 | AID 1478 | Potency, µM, without a hit: max response, negative = inhibition, actives largely listed as inhibitors | purified cruzain, Z-FR-AMC fluorescence, 0.01% Triton | 200,000 compounds, 0.43% hits; active = well fitted curve in the direction sought with a large enough effect; inconclusive = small, poorly fitted or top-dose-only effect, or another doubt; inactive = no such curve, though single readings can be large; an effect the other way counts as inactive or inconclusive;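 note: plate controls were neutral wells for no effect and buffer without enzyme for full effect; nearly all actives have a fitted effect of over 40% in size; top concentration of the series not given in the record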
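In this qHTS format, compounds are incubated with 1.5 nM cruzain for 15 min at room temperature before 2 uM Z-FR-AMC is added. Release of AMC is followed at 360/450 nm, and progress is taken as the 60 s fluorescence difference.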
RE007 growth inh: less growth of the S. pombe RE007 Vpr strain | S. pombe RE007 Vpr strain, BacTiter-Glo ATP luminescence, 24 h; control for the full effect not named in the record | Potency, µM (top dose mostly 92.2 µM), for the others: at the top dose activity change, negative = less growth | 360,000 compounds, 0.21% hits; active = well fitted falling curve with a large enough effect; inconclusive = small, poorly fitted or top-dose-only effect; inactive = no such curve, though single readings can be large or run the other way;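 note: % is set by controls: 0 for no effect and ±100 for the full control effect; nearly all actives have a fitted effect of over 50% in size; the assay follows cell death caused by Vpr and the record does not say whether a fall means rescue or toxicity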
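Fission yeast strain RE007, carrying one chromosomally integrated HIV-1 vpr copy, was seeded at OD 0.01 in PMG+AL medium with 23 nL pinned compound. After 24 h at 30 °C and 99% humidity, viability was read by BacTiter-Glo luminescence.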
LASV entry inh: blocks Lassa virus binding to or entry into cells. Lassa virus pseudotype entry inhibition, cell reporter; control for the full effect not named in the record. Potency, µM (top dose mostly 37.9 µM), inactives show at the top dose activity change, negative = inhibition, hits mostly inhibitors. 300,000 compounds, 1.2% hits. AID 540256; active means well fitted inhibition curve with a large enough effect; inconclusive means small, poorly fitted or top-dose-only effect, or effect the other way; inactive means flat fitted curve, though single readings scatter; tested in HEK293 cells; note: % is set by controls: 0 for no effect and ±100 for the full control effect; nearly all actives have a fitted effect of over 50% in size; luciferase read-out
NS1 inh: blocks influenza NS1 protein function; AID 2326; Potency, µM (doses to about 46.1 µM), inactives show at the top dose activity, positive = more growth; S. cerevisiae slowed by influenza A NS1, growth recovery by OD600; 270,000 compounds, 0.4% hits; note: actives are rising curves; nearly all actives have a fitted effect of over 50% in size
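Growth recovery, yeast-based: influenza A NS1 expressed in S. cerevisiae causes slow growth, and suppressors are detected by OD600. The parent strain without NS1 is used as positive control.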
StopGo reporter: lowers the luciferase signal of an FMDV 2A StopGo reporter | human cells with a luciferase reporter of 2A StopGo recoding; control for the full effect not named in the record | Potency, µM (top dose mostly 57.9 µM), for the others: at the highest dose signal change, negative = less light | 410,000 compounds, 1.2% hits | AID 1159524; active = well fitted falling curve with a large enough effect; inconclusive = small, poorly fitted or top-dose-only effect; inactive = no such curve, though single readings can be large or run the other way; tested in HEK293T cells; note: % is set by controls: 0 for no effect and ±100 for the full control effect; nearly all actives have a fitted effect of over 45% in size; luciferase light after 4 h
SARS PLpro yeast: blocks SARS-CoV papain-like protease in a yeast assay; S. cerevisiae expressing SARS-CoV PLpro, growth rescue; control for the full effect not named in the record; Potency, µM (doses to about 32.9 µM), for the others: at the highest dose activity, positive = growth rescue; 330,000 compounds, 0.19% hits; AID 485353; note: 0% is about no effect; nearly all actives have a fitted effect of over 55% in size; growth read by luminescence after 48 h
* marks the source's active call; other numbers are inactive results; ? = inconclusive; · = not tested or not shown; & = joins results of further samples; [ ] = remark or other dose. Unless noted, calls come from the whole dose curve; as a rule, active means well fitted rising curve with a large enough effect; inconclusive means small, poorly fitted or top-dose-only effect; inactive means no such curve, though single readings can be large or run the other way. Potency is the fitted concentration of half-maximal effect.

The opening 2 compounds, to show the layout:
SMILES	Cruzain noTriton	MARV entry inh	Cruzain inh Det	RE007 growth inh	LASV entry inh	NS1 inh	StopGo reporter	SARS PLpro yeast
NNC(=O)CN1CCCc2ccccc21	·	?	·	-9%	11%	·	19%	1%
CN(C)c1nc(Nc2ccc(Cl)c(Cl)c2)nc(N(C)C)n1	·	?	·	-9%	2%[46.1 µM]	11%	-21%	-6%

This part in full, repeating the preview:
SMILES	Cruzain noTriton	MARV entry inh	Cruzain inh Det	RE007 growth inh	LASV entry inh	NS1 inh	StopGo reporter	SARS PLpro yeast
NNC(=O)CN1CCCc2ccccc21	·	?	·	-9%	11%	·	19%	1%
CN(C)c1nc(Nc2ccc(Cl)c(Cl)c2)nc(N(C)C)n1	·	?	·	-9%	2%[46.1 µM]	11%	-21%	-6%
Cc1cc(C)n(CCC(=O)N2c3ccccc3CC2C)n1 (stereo not given)	·	·	·	-11%	·	-6%	-9%	1%
CCOc1ccc(OCC)c(NC(=O)C2CCN(c3ncccn3)CC2)c1	-8%	23%	1.0%	1%	8%	-6%	-25%	-7%
CC(=O)NCCn1c(C)cc2ccccc21	-6%	·	-1.5%	-11%	·	-41%	-15%	2%
O=c1c2cnn(-c3ccccc3)c2nnn1/N=C/c1cccnc1	3%	5%	0.9%	10%	2%	-8%	?	-12%
Cc1nn(-c2ccc(Br)cc2)c(=O)c2ccccc12	·	?	·	-15%	?	-3%	9%	-1%
CCOC(=O)N1CCN(c2cc(=O)n(C3CCCCC3)c(=O)[nH]2)CC1	9%	1%	6.9%	6%	8%	2%	-20%	6%
CC(=O)Nc1nc(C)c(S(N)(=O)=O)s1	0%	1%	-2.9%	0%	13%	4%	-10%	0%
CCCC(=O)N(c1ccc(OCC)cc1)S(=O)(=O)c1ccc2c3c(cccc13)C(=O)N2C	·	?	·	0%	?	10%	5%	2%
O=C(N/N=C/c1cccs1)c1cc(-c2ccc(Cl)s2)[nH]n1	·	10%	·	-18%	-21%	29%	19%	-1%
Cc1ccc(Cl)cc1NC(=O)C1CC(=O)N(C(C)C)C1 (stereo not given)	·	16%	·	18%	7%	23%	-6%	1%
CC(=O)c1ccc(NC(=O)c2cn(-c3ccccc3)nc2-c2ccc(Br)cc2)cc1	-6%	·	0.5%	·	6%[46.1 µM]	·	?	·
COc1ccc2c(c1OC)CN(C)CCc1cc3c(cc1C(=O)C2)OCO3	·	?	·	14%	3%	1%	-24%	0%
O=C1CSC(c2cccnc2)N1CCc1ccccn1 (stereo not given)	·	·	·	-3%	·	2%	-13%	1%
CCCCn1c(SCc2nc3ccccc3s2)nc2cc(S(N)(=O)=O)ccc21	-13%	1.8µM*	-14%	4%	?	0%	-22%	1%
c1ccc(C2CN3CCC2CC3)cc1 (stereo not given)	·	0%[46.1 µM]	·	2%	3%	2%	4%	0%
O=c1cc(O)sc2ccccc12	-7%	16%	0.4%	-9%	-11%	13%	-20%	-3%
N#CCSc1nc2ccccc2c(=O)n1CCCC(=O)NCC1CCCO1 (stereo not given)	·	5%[46.1 µM]	·	-17%	11%[46.1 µM]	1%	25%	-1%
COc1ccccc1C(=O)N/C(=C/c1ccc2c(c1)OCO2)C(=O)Nc1cccc(C(=O)O)c1	·	1%	·	10%	1%	-5%	-11%	2%
Cc1ccc(NC(=O)CSc2cccc3cccnc23)c(C)c1	·	·	·	0%	·	-20%	4%	-1%
CCC(=O)Nc1ccc2nc(SCCOc3ccc(C)cc3OC)sc2c1	?	?	-7.0%	·	-9%[46.1 µM]	·	-20%	·
CCOC(=O)Cn1nnnc1CN(Cc1cccs1)Cc1cc2cc(C)cc(C)c2[nH]c1=O	-16%	-19%&-19%	-14%	1%	-14%	9%	-4%	7%
CC(C)=C(NC(=O)c1ccccc1)C(N)=O	·	·	·	-8%	·	5%	-15%	0%
COC(=O)CCCC(=O)NC1CC(C)(C)Cc2c1cnn2-c1ccc(C)cc1 (stereo not given)	·	-7%[46.1 µM]	·	19%	?	1%	15%	-1%
CC(OC(=O)c1ccc(S(=O)(=O)NCc2ccco2)cc1)C(=O)Nc1ncc(Cl)cc1Cl (stereo not given)	-25%	15%	-4.7%	0%	15%	6%	-6%	-4%
Cc1nn(Cc2ccc(C(=O)n3cccn3)o2)c(C)c1Br	1%	-2%	-7.5%	-12%	4%	-3%	-25%	-13%
Cc1n[nH]c(C)c1CCc1nc2c3ccccc3nc(SCC(=O)Nc3ccc(F)cc3)n2n1	?	·	-1.8%	·	?	·	?	·
O=c1nc(-c2ccccc2)cc(-c2ccccc2)[nH]1	-6%	4%	-4.0%	22%	0%	-6%	-26%	0%
Cc1nc(SCC(=O)NCc2ccco2)c2c3c(sc2n1)CCCC3	10%	-26%	-13%	1%	-25%	4.5µM*	-4%	-11%
COc1cccc(CNC(=O)CN2C(=O)COc3ccc(S(=O)(=O)N4CCCCCC4)cc32)c1	-16%	·	-2.3%	2%	-1%[46.1 µM]	-11%	-12%&-1%	2%
CCOc1cc(C(=O)NC(C)C2CCCO2)cc(OCC)c1OCC (stereo not given)	·	-2%	·	11%	-19%	0%	-10%	0%
Cc1nn(-c2ccccc2)c(Cl)c1C(=O)OC(C)C(=O)Nc1ccc2c(c1)OCO2 (stereo not given)	1%	-1%	-1.4%	3%	-7%	-9%	-21%	-18%
Cc1cc(C)n(Cc2ccc(C(=O)Nc3ccc(Br)cc3C)o2)n1	3%	?	-2.7%	2%	?	-21%	0%	0%
COc1ccc(NC(c2ccccc2F)P(=O)(Oc2ccccc2)Oc2ccccc2)cc1 (stereo not given)	-2%	-1%	-7.6%	-11%	·	-3%	4%	3%
Cc1ccc(OCCSc2nc(-c3cccs3)nc3cc(=O)[nH]n23)cc1Cl	3%	·	1.5%	·	15%[46.1 µM]	·	-30%	·

A stretch taken from the entries so far:
SMILES	Cruzain noTriton	MARV entry inh	Cruzain inh Det	RE007 growth inh	LASV entry inh	NS1 inh	StopGo reporter	SARS PLpro yeast
Cc1cc(C)n(Cc2ccc(C(=O)Nc3ccc(Br)cc3C)o2)n1	3%	?	-2.7%	2%	?	-21%	0%	0%
COc1ccc(NC(c2ccccc2F)P(=O)(Oc2ccccc2)Oc2ccccc2)cc1 (stereo not given)	-2%	-1%	-7.6%	-11%	·	-3%	4%	3%
Cc1ccc(OCCSc2nc(-c3cccs3)nc3cc(=O)[nH]n23)cc1Cl	3%	·	1.5%	·	15%[46.1 µM]	·	-30%	·

5 compounds from above, showing only RE007 growth inh and LASV entry inh:
| Molecule | RE007 growth inh | LASV entry inh |
| --- | --- | --- |
| Cc1n[nH]c(C)c1CCc1nc2c3ccccc3nc(SCC(=O)Nc3ccc(F)cc3)n2n1 | · | ? |
| O=c1nc(-c2ccccc2)cc(-c2ccccc2)[nH]1 | 22% | 0% |
| Cc1nc(SCC(=O)NCc2ccco2)c2c3c(sc2n1)CCCC3 | 1% | -25% |
| COc1cccc(CNC(=O)CN2C(=O)COc3ccc(S(=O)(=O)N4CCCCCC4)cc32)c1 | 2% | -1%[46.1 µM] |
| CCOc1cc(C(=O)NC(C)C2CCCO2)cc(OCC)c1OCC (stereo not given) | 11% | -19% |

Additional compounds follow:
SMILES	Cruzain noTriton	MARV entry inh	Cruzain inh Det	RE007 growth inh	LASV entry inh	NS1 inh	StopGo reporter	SARS PLpro yeast
Cc1ccccc1C(=O)n1nc(-c2cccnc2)nc1NCc1ccccc1	-3%	5%[46.1 µM]	-8.0%	·	14%[46.1 µM]	·	-26%	·
Cc1ccc(CCN2CC(C(=O)NC3CCCC3)CC2=O)cc1 (stereo not given)	-5%	-10%	3.6%	-3%	-8%	?	8%	7%
O=C(O)c1ccccc1OCCN1CCCC1=O	·	-10%	·	-7%	-5%	14%	6%	-2%
O=C(Cc1ccc(F)cc1)Nc1nc(-c2ccc(F)c(F)c2)cs1	·	·	·	-25%	·	0%	?	1%
Cc1ccc(-c2nc(CCNC(=O)c3ccc(C)c(C)c3)cs2)cc1	5%	·	-11%	·	-1%[46.1 µM]	·	-23%	·
CC1=C(C#N)C(c2ccc(O)cc2)C(C#N)=C(C)N1	·	-1%[46.1 µM]	·	10%	15%	6%	-4%	0%
CCOC(=O)CC1=NN(c2ccccc2)C(=O)C1	·	14%[46.1 µM]	·	5%	-11%	8%	-10%	3%
CC(CCc1ccco1)NC(=O)Cn1nc(Cc2ccncc2)c2ccccc2c1=O (stereo not given)	1%	-5%	0.2%	-9%	·	-7%	0%	10%
CC1CC1C(=O)OCC(=O)Nc1cc(S(=O)(=O)N2CCCCC2)ccc1Cl (stereo not given)	·	15%	·	4%	-8%	·	-6%	-3%
COc1ccc(OCCCCc2c(C)n[nH]c2C)cc1	·	?	·	36%	-28%[46.1 µM]	·	-22%	·
Cc1c(OCC(=O)N2CCN(c3ccccc3)CC2)ccc2c3c(c(=O)oc12)CCCC3	·	17%[46.1 µM]	·	-4%	?	5%	-12%	0%
O=[N+]([O-])c1cc(C(F)(F)F)cc([N+](=O)[O-])c1NCCNC(=S)Nc1cccc(F)c1	·	·	·	-6%	·	-1%	0%	-1%
Cc1ccccc1NC(=S)NC(NC(=O)CF)C(Cl)(Cl)Cl (stereo not given)	0%	-2%[46.1 µM]	0.1%	2%	-20%	0%	-13%	34%
CC(C)Sc1ncc(Cl)c(C(=O)N(Cc2ccc(F)cc2)C2CCS(=O)(=O)C2)n1 (stereo not given)	?	13%[46.1 µM]	-2.7%	·	-2%[46.1 µM]	·	-26%	·
Cc1nnc(NC(=O)C2CC(=O)N(Cc3ccccc3)C2)s1 (stereo not given)	·	-1%[46.1 µM]	·	20%	-10%[46.1 µM]	8%	1%	?
CC(C)N(c1ccccc1)c1ccc(NC(=O)COC(=O)CCN2C(=O)c3cccc([N+](=O)[O-])c3C2=O)cc1	-7%	6%	-2.6%	34%	?	?	-20%	-11%

Screens deposited in PubChem BioAssay by National Center for Advancing Translational Sciences (NCATS).
